Assay outcomes from PubChem BioAssay.
FGF22 binding: FGF22 (human) thermal shift binding; Q9HCT0; recombinant FGF22 thermal shift, SYPRO orange fluorescence; percent of sucrose octasulfate shift, DMSO zero; calls only at 9.99 µM; 340,000 compounds, 1.5% hits; AID 651658;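 active means melting point raised past a set limit in the mean and every replicate; three in four hits are not shown here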
Target sequence (Q9HCT0 whole entry, looked up): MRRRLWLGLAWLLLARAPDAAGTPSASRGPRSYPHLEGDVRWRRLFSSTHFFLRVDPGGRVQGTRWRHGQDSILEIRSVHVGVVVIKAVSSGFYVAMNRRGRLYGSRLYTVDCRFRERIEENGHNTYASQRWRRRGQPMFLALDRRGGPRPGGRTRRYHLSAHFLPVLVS
Calls only; i = inactive.

FGF22 binding | SMILES
i | Cc1cccc(S(=O)(=O)N2C[C@@H]3N[C@H](C2)C3c2ccc(-c3cncnc3)cc2)c1 (some centres not stated)
i | CN1CCN(C(=O)C[C@H]2C[C@@H]3c4cc(NS(=O)(=O)c5ccc(F)cc5)ccc4O[C@@H]3[C@H](CO)O2)CC1
i | Cc1ccccc1-c1ccc(C2[C@H]3CNC[C@@H]2N3Cc2ccccn2)cc1 (some centres not stated)
i | COc1ccc(-c2cc(NC(=O)Cc3c[nH]c4ccccc34)ccc2Nc2cccnc2)c(OC)c1
i | COC(=O)C[C@H]1C[C@H]2c3cc(NC(=O)Nc4ccc(OC)cc4)ccc3O[C@H]2[C@H](CO)O1
i | Cc1noc(C)c1NC(=O)N(C)C[C@@H]1Oc2ccc(NC(=O)Cn3cnnn3)cc2CC(=O)N([C@H](C)CO)C[C@H]1C
i | CCCNC(=O)C[C@@H]1C[C@H]2c3cc(NC(=O)Cc4ccncc4)ccc3O[C@H]2[C@@H](CO)O1
i | C[C@H](CO)N1C[C@H](C)[C@@H](CN(C)S(=O)(=O)c2cccs2)OCCCC[C@H](C)Oc2ccc(NC(=O)Nc3cccc4ccccc34)cc2C1=O
i | COc1ccc(NC(=O)N(C)C[C@H]2OCCCC[C@@H](C)Oc3ccc(NC(=O)c4ccncc4)cc3C(=O)N([C@@H](C)CO)C[C@@H]2C)cc1
i | COC(=O)C1=C(C)N(Cc2cccc(C(F)(F)F)c2)C(=NCc2ccc(C(F)(F)F)cc2)NC1c1ccc(C(F)(F)F)cc1 (configuration not stated)
i | CS(=O)(=O)Nc1ccc2c(c1)[C@H]1C[C@@H](CC(=O)N3CCCCC3)O[C@@H](CO)[C@H]1O2
i | COc1ccccc1-c1ccc2c(c1)[C@@H]1[C@@H](CCN1S(=O)(=O)c1ccccc1OC)[C@H](CO)N2
i | C[C@@H]1CN([C@H](C)CO)C(=O)Cc2cc(NC(=O)Nc3ccccc3)ccc2O[C@H]1CN(C)C(=O)Nc1ccc(C(F)(F)F)cc1
i | C[C@@H]1CCCCO[C@H](CN(C)C(=O)CCCN(C)C)[C@@H](C)CN([C@H](C)CO)C(=O)c2cc(NC(=O)Nc3ccc4c(c3)OCO4)ccc2O1
i | Cc1noc(C)c1NC(=O)Nc1ccc2c(c1)CC(=O)N([C@H](C)CO)C[C@@H](C)[C@@H](CN(C)S(C)(=O)=O)O2
i | C[C@@H]1CCCCO[C@@H](CN(C)C(=O)Nc2ccc3c(c2)OCO3)[C@@H](C)CN([C@H](C)CO)C(=O)c2cc(NC(=O)Cc3ccccc3)ccc2O1
i | C[C@H](CO)N1C[C@H](C)[C@H](CN(C)C(=O)Nc2ccc(F)cc2)Oc2ccc(NC(=O)Nc3ccc4c(c3)OCO4)cc2CC1=O
i | CCCNC(=O)C[C@H]1C[C@@H]2c3cc(NC(=O)Nc4ccccc4)ccc3O[C@@H]2[C@H](CO)O1
i | COc1cccc(CN(C)C(=O)[C@@H](Cc2ccccc2)NC(=O)[C@H]2O[C@@H](n3ccc(=O)[nH]c3=O)[C@H](O)[C@@H]2O)c1
i | COc1ccc(NC(=O)Nc2ccc3c(c2)C(=O)N([C@@H](C)CO)C[C@H](C)[C@@H](CN(C)C(=O)CCC(F)(F)F)OCCCC[C@@H](C)O3)cc1

Structures listed so far containing an NH in an aromatic ring (2):
FGF22 binding | SMILES
i | COc1ccc(-c2cc(NC(=O)Cc3c[nH]c4ccccc34)ccc2Nc2cccnc2)c(OC)c1
i | COc1cccc(CN(C)C(=O)[C@@H](Cc2ccccc2)NC(=O)[C@H]2O[C@@H](n3ccc(=O)[nH]c3=O)[C@H](O)[C@@H]2O)c1

Pulled by structure from the entries so far:
FGF22 binding | SMILES
i | Cc1noc(C)c1NC(=O)N(C)C[C@@H]1Oc2ccc(NC(=O)Cn3cnnn3)cc2CC(=O)N([C@H](C)CO)C[C@H]1C
i | Cc1ccccc1-c1ccc(C2[C@H]3CNC[C@@H]2N3Cc2ccccn2)cc1 (some centres not stated)

Later entries.
FGF22 binding | SMILES
i | COCC(=O)Nc1ccc2c(c1)C(=O)N(C)[C@@H]1CC[C@@H](CC(=O)Nc3cn(C)nc3C)O[C@@H]1CO2
i | C[C@H](O)C#Cc1ccc2c(c1)O[C@@H](CN(C)CC1CCOCC1)[C@@H](C)CN([C@H](C)CO)S2(=O)=O
i | Cc1noc(C)c1NC(=O)N1C[C@@H](O)COC[C@@H]2O[C@H](CC(=O)N3CCc4ccccc4C3)CC[C@H]21
i | C[C@H](CO)N1C[C@H](C)[C@@H](CN(C)C(=O)Nc2ccc(C(F)(F)F)cc2)Oc2ccc(NC(=O)CCC(F)(F)F)cc2CC1=O
i | O=C(C[C@H]1CC[C@H]2NC[C@@H](O)COC[C@@H]2O1)NCCN1CCCCC1
i | C[C@@H]1CCCCO[C@@H](CN(C)Cc2ccccc2)[C@@H](C)CN([C@H](C)CO)C(=O)c2cc(NC(=O)c3ccccc3)ccc2O1
i | CN1C(=O)c2cc(NC(=O)c3cccc(F)c3)ccc2OC[C@H]2O[C@@H](CC(=O)O)CC[C@H]21
i | COc1ccc(S(=O)(=O)N(C)C[C@@H]2Oc3c(NS(=O)(=O)c4ccc(F)cc4)cccc3C(=O)N([C@@H](C)CO)C[C@@H]2C)cc1
i | COC(=O)C1=C(C)N(Cc2ccccc2C(F)(F)F)C(=NCc2cc(OC)c(OC)c(OC)c2)NC1c1ccccc1C(F)(F)F (configuration not stated)
i | O=S(=O)(c1ccccc1F)N1CCCCN2[C@H](CO)[C@H](c3ccc(-c4cccnc4)cc3)[C@@H]2C1
i | CC(C)NC(=O)N1CC[C@H]2[C@@H]1c1cc(C#Cc3cccnc3)ccc1N(C)[C@H]2CO
i | Cc1ccc(S(=O)(=O)Nc2ccc3c(c2)C(=O)N([C@@H](C)CO)C[C@@H](C)[C@H](CN(C)Cc2ccccc2)OCCCC[C@@H](C)O3)cc1
i | CN1OC[C@@H]2CN(C(=O)c3ccc(C#N)cc3)[C@H](c3cccc(Br)c3)C[C@@H]21
i | C[C@H]1CN([C@@H](C)CO)C(=O)c2cccc(NC(=O)Nc3ccc(C(F)(F)F)cc3)c2O[C@@H]1CN(C)C(=O)Nc1ccc2c(c1)OCO2
i | COc1ccc(CN(C)C[C@H]2OCCCC[C@@H](C)Oc3ccc(NC(=O)Cc4ccccc4)cc3C(=O)N([C@H](C)CO)C[C@@H]2C)cc1
i | C[C@H](O)[C@@H]1CN2CCc3ccc(-c4ccc5c(c4)OCO5)cc3[C@@H]2C[C@@H]1N(C)C(=O)C1CCCCC1
i | CC(C)NC(=O)Nc1ccc2c(c1)C(=O)N(C)[C@@H]1CC[C@H](CC(=O)NCC(F)(F)F)O[C@H]1CO2
i | COc1ccc(-c2ccc3c(c2)[C@H]2[C@H](CCN2S(=O)(=O)c2ccccc2F)[C@H](CO)N3)cc1
i | CC(C)c1[nH]nc2c1C(c1ccccc1)N(c1ccccc1)C2=O (configuration not stated)
i | Cc1ccc(S(=O)(=O)Nc2ccc3c(c2)CC(=O)N([C@H](C)CO)C[C@H](C)[C@H](CN(C)S(=O)(=O)c2ccc(F)cc2)O3)cc1

(next part)
FGF22 binding | SMILES
i | CC(C)C(=O)Nc1ccc2c(c1)C(=O)N(C)[C@@H]1CC[C@@H](CC(=O)N[C@@H](C)c3ccccc3)O[C@@H]1CO2
i | COc1ccc(NC(=O)Nc2ccc3c(c2)CC(=O)N([C@@H](C)CO)C[C@H](C)[C@@H](CN(C)Cc2ccc(C(F)(F)F)cc2)O3)cc1
i | C[C@@H]1CCCCO[C@H](CN(C)Cc2ccc3c(c2)OCO3)[C@H](C)CN([C@H](C)CO)C(=O)c2cc(NC(=O)Nc3cccc4ccccc34)ccc2O1
i | COc1ccc(NC(=O)N(C)C[C@@H]2OCCCC[C@@H](C)Oc3ccc(NS(=O)(=O)c4ccc(OC)cc4)cc3C(=O)N([C@H](C)CO)C[C@@H]2C)cc1
i | C[C@@H]1CCCCO[C@H](CN(C)Cc2ccc3c(c2)OCO3)[C@H](C)CN([C@H](C)CO)C(=O)c2cc(NS(=O)(=O)c3cccs3)ccc2O1
i | COc1ccc2c3c([nH]c2c1)[C@H](CO)N(C(=O)CN(C)C)CC31CN(CC2CCOCC2)C1
i | COc1cc(CN2[C@@H]3CNC[C@H]2C3c2ccc(-c3ccc(C)cc3)cc2)cc(OC)c1 (some centres not stated)
i | COCC(=O)Nc1ccc2c(c1)[C@H]1C[C@H](CC(=O)N(C)C)O[C@@H](CO)[C@H]1O2
i | C[C@@H]1CCCCO[C@H](CN(C)S(=O)(=O)c2cccs2)[C@H](C)CN([C@@H](C)CO)C(=O)c2cc(NC(=O)Cc3ccccc3)ccc2O1
i | C[C@H](CO)N1C[C@H](C)[C@@H](CN(C)C(=O)NC2CCCCC2)OCCCC[C@H](C)Oc2ccc(NC(=O)c3ccccc3)cc2C1=O
i | Cc1noc(C)c1NC(=O)N(C)C[C@@H]1Oc2ccc(NC(=O)Cn3cnnn3)cc2CC(=O)N([C@H](C)CO)C[C@@H]1C
i | CN1C(=O)c2cc(NC(=O)Nc3ccccc3Cl)ccc2OC[C@H]2O[C@@H](CC(=O)O)CC[C@@H]21
i | Cc1noc(C)c1NC(=O)N(C)C[C@H]1OCCCC[C@H](C)Oc2ccc(NS(=O)(=O)c3cn(C)cn3)cc2C(=O)N([C@@H](C)CO)C[C@H]1C
i | Cc1ccccc1-c1ccc(C2[C@H]3CNC[C@@H]2N3Cc2ccc3c(c2)OCO3)cc1 (some centres not stated)
i | CC(=O)N1CCN(c2ccc(N3CCN(Cc4ccccc4)[C@H](C)C3)c(C)c2)[C@@H](C)C1
i | CN(C)CC(=O)N1C[C@@H]2N[C@H](C1)C2c1ccc(-c2ccccc2F)cc1 (some centres not stated)
i | COc1ccc(S(=O)(=O)Nc2ccc3c(c2)CC(=O)N([C@H](C)CO)C[C@H](C)[C@H](CN(C)S(=O)(=O)c2ccccc2)O3)cc1
i | O=C(c1ccncc1)N1CC2(C1)[C@@H](c1ccccc1)[C@H](CO)N2C(=O)c1ccncc1
i | O=C(C1CC1)N1CC[C@@H]2[C@@H](CO)Nc3ccc(C#Cc4ccc(F)cc4)cc3[C@@H]21
i | O=C(C[C@@H]1CC[C@H]2[C@@H](COC[C@@H](O)CN2C(=O)c2ccc3c(c2)OCO3)O1)NC1CCCC1

The listing continues:
FGF22 binding | SMILES
i | Cc1ccc(-c2cc(NC(=O)Cc3c(C)[nH]c4ccccc34)ccc2Nc2cccnc2)cc1
i | CCNC(=O)C[C@H]1CC[C@@H]2[C@H](COC[C@@H](O)CN2Cc2ccncc2)O1
i | Cc1ccc(S(=O)(=O)Nc2cccc3c2O[C@@H](CN(C)Cc2ccc(C(=O)Nc4ccccc4N)cc2)[C@H](C)CN([C@@H](C)CO)C3=O)cc1
i | C[C@@H]1ON(C)[C@H]2C[C@H]3c4[nH]c5cccc(-c6ccc7c(c6)OCO7)c5c4CCN3C(=O)[C@@H]12
i | Cn1cnc(S(=O)(=O)N2C[C@@H](O)COC[C@H]3O[C@H](CC(=O)NCc4cccc(F)c4)CC[C@@H]32)c1
i | C[C@@H]1CN([C@@H](C)CO)C(=O)c2cc(NS(=O)(=O)c3cccs3)ccc2O[C@@H](C)CCCCO[C@@H]1CN(C)C(=O)CCC(F)(F)F
i | COC(=O)C[C@H]1CC[C@H]2[C@H](COc3ccc(NC(=O)NCc4ccccc4)cc3C(=O)N2C)O1
i | COc1ccc(S(=O)(=O)Nc2ccc3c(c2)C(=O)N([C@@H](C)CO)C[C@H](C)[C@@H](CN(C)Cc2ccccc2)OCCCC[C@H](C)O3)cc1
i | C[C@H](CO)N1C[C@H](C)[C@H](CN(C)C(=O)CCC(F)(F)F)OCCCC[C@H](C)Oc2ccc(NC(=O)c3ccncc3)cc2C1=O
i | c1ccc(COCCc2cn(Cc3ccccc3)c3ccccc23)cc1
i | C[C@H]1CCCCO[C@@H](CN(C)C(=O)Nc2cccc3ccccc23)[C@@H](C)CN([C@@H](C)CO)C(=O)c2cc(NS(=O)(=O)c3cn(C)cn3)ccc2O1
i | C[C@@H]1CCCCO[C@H](CN(C)S(=O)(=O)c2ccc(Cl)cc2)[C@@H](C)CN([C@@H](C)CO)C(=O)c2cc(NS(=O)(=O)c3ccccc3)ccc2O1
i | C[C@@H]1CCCCO[C@H](CN(C)C(=O)Cc2ccccc2)[C@@H](C)CN([C@@H](C)CO)C(=O)c2cc(NC(=O)NC3CCCCC3)ccc2O1
i | COc1cc(Nc2cc(C)n(-c3cc(OC)cc(OC)c3)c(=O)c2)cc(OC)c1
i | C[C@@H]1CN([C@H](C)CO)C(=O)c2cccc(NS(=O)(=O)c3ccccc3)c2O[C@@H]1CN(C)S(=O)(=O)c1ccc(Cl)cc1
i | Cc1noc(C)c1NC(=O)N(C)C[C@H]1Oc2ccc(NS(=O)(=O)c3cccs3)cc2CC(=O)N([C@@H](C)CO)C[C@@H]1C
i | CC(C)C(=O)Nc1ccc2c(c1)C(=O)N(C)[C@H]1CC[C@@H](CC(=O)N[C@@H](C)c3ccccc3)O[C@@H]1CO2
i | COc1ccc(S(=O)(=O)Nc2ccc3c(c2)C(=O)N([C@H](C)CO)C[C@H](C)[C@H](CN(C)Cc2ccc(Cl)c(Cl)c2)OCCCC[C@@H](C)O3)cc1
i | COCc1cc(N2CCNC[C@@H]2C)ccc1N1CCS(=O)(=O)CC1

Exported bar-delimited: entries from further up
Molecule | FGF22 binding
CCNC(=O)C[C@H]1CC[C@@H]2[C@H](COC[C@@H](O)CN2Cc2ccncc2)O1 | i
Cc1ccc(S(=O)(=O)Nc2cccc3c2O[C@@H](CN(C)Cc2ccc(C(=O)Nc4ccccc4N)cc2)[C@H](C)CN([C@@H](C)CO)C3=O)cc1 | i
C[C@@H]1ON(C)[C@H]2C[C@H]3c4[nH]c5cccc(-c6ccc7c(c6)OCO7)c5c4CCN3C(=O)[C@@H]12 | i
Cn1cnc(S(=O)(=O)N2C[C@@H](O)COC[C@H]3O[C@H](CC(=O)NCc4cccc(F)c4)CC[C@@H]32)c1 | i
C[C@@H]1CN([C@@H](C)CO)C(=O)c2cc(NS(=O)(=O)c3cccs3)ccc2O[C@@H](C)CCCCO[C@@H]1CN(C)C(=O)CCC(F)(F)F | i

This is a subset; the hit share may differ from the screen's.
